# High-throughput results (PubChem)
# CtBP-E1A blk – qHTS Assay for Inhibitors of the CtBP/E1A Interaction. 340,000 tested, 0.49% active. CtBP / adenovirus E1A interaction (AlphaScreen). activity change, % (no concentration beside the values). AlphaScreen GST-E1A/His-CtBP binding, 1536-well; active compounds read low; control for the full effect not named in the record; in the data active means activity change below about -65%; inconclusive means about -30% to -65%; inactive means above about -30%; also: % is scaled to controls: 0 for no effect and ±100 for the full control effect
#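 Homogeneous bead-based format: GST-tagged E1A captured on glutathione donor beads, His-tagged CtBP on nickel acceptor beads; compounds precede bead addition by 2 h at 37 °C.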
# D2 PAM – Beta-Arrestin HTS for Positive Allosteric Modulators of the Human D2 Dopamine Receptor: Potentiators; D(2) dopamine receptor (Homo sapiens), P14416; DiscoveRx D2 beta-arrestin cells, luminescence, 90 min; 100% = 57 uM dopamine signal; potentiation, % (test concentration not listed); 360,000 tested, 0.23% active; AID 624464, 2012; active = potentiation of 50% or more; inconclusive = 30% to 50%; inactive = 30% or less;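 also: compound concentration not given in the record; tested on top of an EC20 dose of dopamine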
# Target sequence (P14416 whole entry, looked up): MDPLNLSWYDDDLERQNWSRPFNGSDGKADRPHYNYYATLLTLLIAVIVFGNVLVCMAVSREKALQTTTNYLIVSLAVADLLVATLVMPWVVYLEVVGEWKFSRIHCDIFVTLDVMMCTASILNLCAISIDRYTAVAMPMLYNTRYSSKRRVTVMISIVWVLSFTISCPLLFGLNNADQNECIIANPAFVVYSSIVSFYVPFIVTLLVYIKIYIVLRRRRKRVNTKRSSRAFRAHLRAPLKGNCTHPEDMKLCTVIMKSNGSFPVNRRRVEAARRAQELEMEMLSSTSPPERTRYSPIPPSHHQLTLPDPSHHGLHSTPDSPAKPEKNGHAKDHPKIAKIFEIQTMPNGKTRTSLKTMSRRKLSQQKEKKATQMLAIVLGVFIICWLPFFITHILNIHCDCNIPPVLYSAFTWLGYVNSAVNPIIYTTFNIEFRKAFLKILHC
#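 PathHunter beta-arrestin assay in DiscoveRx D2 cells. Compounds were added with an EC20 of dopamine (50 nM final) for 90 min at 37 deg C. Luminescence was read 1 h after detection reagent, with 57 uM dopamine as the EC100 control.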
# Six1-Eya2 blk – qHTS Assay for Inhibitors of the Six1/Eya2 Interaction. Homeobox protein SIX1 (Homo sapiens) + Protein phosphatase EYA2 (Homo sapiens), …. AlphaScreen GST-Six1/His-Eya2 binding, biochemical; active compounds read low; control for the full effect not named in the record. activity change, % (no concentration beside the values). 360,000 tested, 0.56% active; in the data active = activity change below about -65%; inconclusive = about -30% to -65%; inactive = above about -30%; also: % is scaled to controls: 0 for no effect and ±100 for the full control effect
#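 Compounds are tested against tagged Six1 and Eya2 proteins bridged by glutathione donor and nickel acceptor beads; after a one-hour incubation at 37 °C without light, AlphaScreen emission is recorded.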
# gsp ag – qHTS for Agonist of gsp, the Etiologic Mutation Responsible for Fibrous Dysplasia/McCune-Albright Syndrome: qHTS; gsp mutant cells, cAMP HTRF, 30 min; control for the full effect not named in the record; Potency, µM (top dose mostly 76.9 µM), for the others: top-dose activation (cAMP increase), hits mostly activators; 340,000 tested, 0.13% active; AID 624287, 2012; active = well fitted activation curve with a large enough effect; inconclusive = small, poorly fitted or top-dose-only effect, or another doubt; inactive = no such curve, though single readings can be large or run the other way; cell line not stated here;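 also: phosphodiesterase inhibitor Ro 20-1724 added with compounds to block cAMP breakdown; potency is read from the fitted curve at half-maximal effect; nearly all actives have a fitted effect of over 60% in size; about a fifth of the inactives were tested at one dose only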
#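 Cells in DMEM/10% FBS with G418 were pretreated with compounds in DMSO plus […] (300 uM stock) for 30 min at 37C. cAMP was measured by HTRF (cAMP-d2 plus anti-cAMP antibody-K) after 30 min at room temperature.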
# gsp antag – qHTS for Antagonists of gsp, the Etiologic Mutation Responsible for Fibrous Dysplasia/McCune-Albright Syndrome: qHTS; gsp-mutant cells, cAMP HTRF, 30 min; control for the full effect not named in the record; Potency, µM (titrated, usually from 76.9 µM), inactives show top-dose activity change, negative = inhibition, usual class: inhibitors; 340,000 tested, 0.4% active; AID 624288, 2012; active = falling curve of any shape with a large fitted effect; inconclusive = falling curve, mostly with a smaller effect; inactive = flat or rising curve; cell line not stated here;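 also: intracellular cAMP measured with PDE inhibitor Ro 20-1724 present during compound exposure; potency is read from the fitted curve at half-maximal effect; % is scaled to controls: 0 for no effect and ±100 for the full control effect; nearly all actives have a fitted effect of over 65% in size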
#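 HTRF cAMP measurement after 30 min RT detection following 30 min, 37C compound treatment alongside […] (added as 300 uM solution) in G418-selected cells seeded at 2000/well and grown 16–24 h.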
# D2 agonist – Beta-Arrestin HTS for Positive Allosteric Modulators of the Human D2 Dopamine Receptor: Agonists. 360,000 tested, 0.084% active. D(2) dopamine receptor (Homo sapiens), P14416. activation, % (no concentration beside the values). DiscoveRx PathHunter D2 beta-arrestin, luminescence, 90 min; 100% = 57 uM dopamine signal; in the data active = activation above about 40%; inconclusive = about 15% to 40%; inactive = below about 15%; also: compound concentration not given in the record; the text of the record calls up to 30% inactive
#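 Agonist mode: compounds alone added to overnight-plated D2 PathHunter cells for 90 min at 37 C, with 57 uM final dopamine (EC100) defining full response. Beta-arrestin recruitment detected by chemiluminescent reagent, read after 1 h at ambient temperature.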
# Active calls of the source: *; u = inconclusive; x = no result given; [ ] = remark or other dose.
SMILES,CtBP-E1A blk,D2 PAM,Six1-Eya2 blk,gsp ag,gsp antag,D2 agonist
Cc1cc(C(=O)N/N=C/c2cccn2C)no1,-5.8,-8.4,-7.7,1.4%[15.4 µM],6.7%,-7.6
Cc1ccc(CC(=O)NCCCn2ccnc2)cc1,-9.6,1.9,6.3,5.2%[15.4 µM],-20.4%,-6.1
O=C(C1CCCN(Cc2ccncc2)C1)N1CCc2ccccc2C1 (stereo not drawn),0.6,-7.9,-6.3,-14.1%,-3.6%,-2.0
CCOC(=O)c1c(/N=C/C2C(=O)CCCC2=O)sc2c1CCCC2,-1.6,-6.5,-3.2,15.9%,-11.1%,0.1
Cc1cc(C(=O)NNC(=O)Nc2cccc(C(F)(F)F)c2)no1,0.0,-2.3,-0.4,-1.7%[15.4 µM],9.6%,-20.6
CCOC(=O)Cc1csc(SCC(=O)Nc2oc(C)c3c(C)n[nH]c(=O)c23)n1,-15.0,-2.5,-2.5,23.2%,-1.7%,-7.8
O=C(CN1C(=O)NC2(CCCC2)C1=O)NNC(=O)c1ccccc1F,x,7.4,0.2,-25.6%,14.8%,-0.4
O=C(c1ccccc1)N1CCC2(CC1)NCCc1[nH]cnc12,x,-4.6,0.2,-5.2%,-8.1%,-6.1
COc1ccc(OC)c(NC(=O)CCCN2C(=O)C3C4C=CC(C4)C3C2=O)c1 (stereo not drawn),6.3,1.0,-0.1,-26.5%,-13.8%,-0.1
CCC(=O)N/N=C(\C)CC(=O)Nc1ccc(Cl)cc1,-2.8,-15.9,5.9,7.4%[15.4 µM],0.3%,-3.8
O=c1[nH]cc(-c2ccccc2)c(=O)[nH]1,x,-6.7,-3.1,-37.7%[inhibitor],-5.4%,-3.6
CCc1nnc(NS(=O)(=O)c2ccc(NC(=S)NC(=O)c3cccnc3)cc2)s1,-20.5,-12.6,-0.6,-2.9%[15.4 µM],16.1%,2.1
CCC1=NN(C(=O)CCc2ccccc2)C(O)(C(F)(F)F)C1 (stereo not drawn),3.6,-1.8,7.4,-73.5%[inhibitor],-14.6%,-1.3
COc1cccc(NC(=O)C2(C)CCN2C(=O)C2CCCCC2)c1 (stereo not drawn),1.3,-6.8,0.4,x,x,-5.4
Cc1nn(C)c(Sc2ccccc2N)c1[N+](=O)[O-],x,0.6,0.7,-0.1%,3.8%,44.5*
O=S(=O)(c1ccccc1)c1cnc(-c2ccccc2)nc1N1CCCCC1,14.4,-0.7,10.2,-19.2%,-6.8%,-5.6
Cc1cccc(NC(=O)Cc2cccs2)n1,-2.4,-0.7,-2.8,22.9%,4.5%,-0.4
O=C(O)c1ccc(S(=O)(=O)NN=Cc2c[nH]c3ccccc23)cc1,-4.8,-7.4,7.3,-3.4%,x,-1.6
CC(=O)C1=C(C)NC(=O)CC1c1ccc(Br)cc1 (stereo not drawn),1.0,-0.4,3.6,15.4%,1.0%,1.9
O=C(CSc1nnc(CN2CCCC2)n1-c1ccc(F)cc1)c1ccc2c(c1)OCO2,-20.8,-11.5,-3.8,-55.4%[inhibitor],1.9%,-1.7
CC1CCN(S(=O)(=O)CCNC(=O)c2ccc(F)cc2)CC1,5.9,0.7,3.3,31.1%[15.4 µM],1.6%,-4.9
O=C(NCc1cccnc1)c1noc2c1CCCC2,14.0,-3.6,8.1,2.3%,9.9%,1.3
COc1ccc(NC(=O)CN2C(=O)NC(C)(c3ccccc3)C2=O)cn1 (stereo not drawn),5.7,-1.5,-1.2,25.2%,x,-0.7
COc1cc(/C=N/NC(=O)COc2ccccc2C)ccc1OC(=O)c1cccs1,-1.0,3.3,-1.6,5.1%,2.5%,-0.6
Cc1cc2n(n1)C(c1ccc3c(c1)OCO3)Nc1ccccc1-2 (stereo not drawn),-0.6,-2.2,-4.0,-24.5%,-7.2%,-0.8
Cc1cccc(NC(=O)c2cc(Cl)nc3ccccc23)c1,-3.7,-11.1,-11.8,-8.2%[15.4 µM],8.8%,-5.6
CN(c1ccc(Cl)cc1)c1cc(=O)n(C)c2ccccc12,6.5,-10.9,8.8,u,-16.8%,0.9
S=c1nc2[nH]c3ccccc3c2n[nH]1,u,-6.4,u,-11.7%,-4.5%,0.2
CC(C)CNC(=O)C1(C)CCCN1C(=O)c1cccnc1Oc1ccccc1 (stereo not drawn),-21.7,-10.7,10.2,x,x,5.7
CCn1cc(C(=O)N[C@@H](CCSC)C(=O)NCCN2CCOCC2)c(=O)c2cc3c(cc21)OCO3,-15.8,-10.7,-1.6,25.1%,9.7%,0.7
O=C(N/N=C1\CCS(=O)(=O)c2ccc(F)cc21)c1ccc([N+](=O)[O-])cc1,x,13.4,-4.7,-20.7%,-4.4%,9.9
CCCc1cc(=O)oc2cc(OCC(=O)NC(Cc3c[nH]c4ccc(O)cc34)C(=O)O)c(Cl)cc12 (stereo not drawn),7.1,-1.0,-2.1,-21.4%,6.8%,2.2
COc1ccc(NC(=O)CN(C)C(=O)Cn2c(=O)oc3ccccc32)cc1,-20.1,-8.4,23.1,-16.6%[15.4 µM],-2.2%,8.4
CC(C)NS(=O)(=O)c1ccc(OCC(=O)Nc2cccc(F)c2)cc1,7.5,-6.2,3.7,8.4%,-14.2%,8.8
COCCCNC(=O)c1ccc2nc([C@@H]3O[C@H](CO)[C@H](O)[C@H](O)[C@H]3O)[nH]c2c1,3.0,-8.5,7.1,x,x,-2.9
O=[N+]([O-])c1ccc(N2CCC(O)CC2)nc1,0.0,-6.5,0.5,1.9%,1.0%,0.4
CCc1nc(Nc2ccc(OC)cc2OC)c2oc3ccccc3c2n1,0.3,7.6,-1.6,20.6%[15.4 µM],5.2%,1.2
CCS(=O)(=O)N1CCN(C(=O)c2cc(OC)cc(OC)c2)CC1,-8.3,0.4,4.3,-33.1%[inhibitor],-0.9%,2.0
COc1cc(CNc2ncc(-c3ccc(Br)cc3)n2C)cc(OC)c1O,x,-61.5,-1.5,2.9%,0.6%,-3.6
CC1(C2CC2)NC(=O)N(CC(=O)Nc2ccccc2C#N)C1=O (stereo not drawn),1.2,5.8,0.6,2.7%[15.4 µM],-10.1%,2.4
COc1cc(/C=C2\SC(=S)N(N3CCOCC3)C2=O)ccc1O,-11.6,-9.0,-1.9,u,-2.0%,-4.5
CON(c1nc(N(C)C)nc(N(C)C)n1)S(=O)(=O)c1ccccc1Cl,0.0,-7.4,-1.0,-51.5%[inhibitor],-16.6%,-2.4
CCO[C@@H]1OC(C(=O)NC2CC2)=C[C@H](c2c[nH]c3ccccc23)[C@H]1CCCO,8.5,-2.0,4.6,x,-0.2%,0.6
Cc1nc2cc(S(=O)(=O)C(F)(F)F)ccc2s1,12.4,-4.1,8.8,4.5%,-3.1%,-3.7
O=C(Nc1ccnn1C1CCN(Cc2ccccc2)CC1)C1CCOC1 (stereo not drawn),7.0,6.5,3.2,-0.7%,5.7%,-1.8
COc1ccc(C(=O)NNC(=O)CSc2nnc(C)n2C)cc1,6.7,-3.8,-6.6,16.6%,10.7%,-0.1
CCN(CC)C(=O)C1=C(C)Nc2nc3ccccc3n2C1c1cccc(OC)c1 (stereo not drawn),1.4,-1.1,1.0,-54.3%[inhibitor],-2.4%,-4.0
Nc1cccc(-c2ccc(CO)o2)c1,x,-1.5,1.5,-44.7%[inhibitor],4.3%,10.1
S=C(NC1CCCC1)N1CCN(c2ncccn2)CC1,1.8,-0.4,2.9,-50.9%[inhibitor],-3.5%,1.2
CCCCOc1ccc(Nc2nc(C)cc(C)c2C#N)cc1,9.3,-8.5,10.0,-23.3%,-3.7%,-4.6
# Following part.
SMILES,CtBP-E1A blk,D2 PAM,Six1-Eya2 blk,gsp ag,gsp antag,D2 agonist
CC1CCN(c2oc(-c3ccc(F)cc3)nc2C#N)CC1,-12.8,-8.5,-18.9,13.8%,1.6%,3.4
CC(=O)NC12CC3CC(C)(C1)CC(NC(C)=O)(C3)C2,4.8,-1.9,0.5,-45.7%[inhibitor],3.8%,-2.4
Cc1ccc(OCC(=O)Nc2ccc(S(=O)(=O)N3CCN(C)CC3)cc2)cc1,-2.1,21.5,-0.6,-12.4%,-9.9%,0.6
CC[C@]12c3[nH]c4ccc(Cl)cc4c3CCN1C(=O)[C@@H](CC(=O)NCCCN(C)C)C[C@@H]2C(=O)N1CCN(C(=O)c2ccco2)CC1,0.0,-10.0,-0.9,x,9.2%,-1.0
O=c1cc(N2CCc3ccccc32)[nH]c(=O)n1Cc1ccc(F)cc1,-4.1,2.3,4.2,-0.3%,1.2%,0.9
Cn1cc(-c2ccccc2C(N)=O)c(=O)c2cc(Cl)ccc21,-11.2,-4.1,-3.8,8.8%[15.4 µM],-21.1%,-7.3
O=C(CN1CCN(C(=O)C2CCCO2)CC1)Nc1ccc(Cl)cc1 (stereo not drawn),10.5,-5.3,2.4,-0.6%,-3.3%,-4.5
Cc1cccc(S(=O)(=O)N(CC(=O)Nc2ccccc2C)Cc2ccco2)c1,-22.7,2.0,0.5,16.9%,6.2%[15.4 µM],-3.0
Cc1nc(CN2CCN(C(=O)CCc3nnc(Cc4c[nH]c5ccccc45)o3)CC2)cs1,1.3,-6.2,-1.7,0.4%,-4.5%,14.8
O=C(O)CNC(=O)/C(=C/c1ccco1)NC(=O)/C=C/c1ccccc1,-0.9,-0.9,3.9,-29.0%,6.4%,-5.5
Cc1ccsc1/C=N\NC(=O)c1n[nH]c2c1CCC2,-3.3,-7.5,-2.0,6.8%,-5.8%,-5.7
C=CCc1cccc(/C=N/NC(=O)CCC(=O)Nc2ccc(C)cc2)c1O,-12.7,-24.3,-2.5,5.2%,-1.5%,-3.4
C=CCN1C2=NCCCN2c2ccccc21,-1.0,-13.4,-6.1,u,11.9%,-10.5
CC(C)CCNc1c(-c2cccs2)nc2ccccn12,-4.8,8.3,-0.1,0.5%,-27.8%,12.3
COc1cccc(Cn2c(Oc3cccc(C)c3)nc3c2c(=O)n(C)c(=O)n3C)c1,-15.0,-7.1,-26.8,-10.0%,-18.5%,-0.7
O=C(O)C1CSC(CCc2ccccc2)N1 (stereo not drawn),-16.4,u,-0.5,-1.6%,-0.2%,1.5
CCCCNc1c(C(=O)OCC)c(C)nc2c1cnn2CC,6.8,-2.3,9.2,x,0.7%,-4.6

# Random draw from the library; 1.4% or so of the library scored in one or more.
